Screening data: PubChem, Johns Hopkins Ion Channel Center
KCNQ2 pot: potentiators of rat KCNQ2 potassium channel. B-score at 10 µM. Potassium voltage-gated channel subfamily KQT member 2 (Rattus norvegicus), O88943. 310,000 compounds, 0.54% hits. CHO-K1 KCNQ2, FluxOR thallium flux fluorescence; stronger effect = higher value;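 active = fluorescence ratio B-score at least 3 SD of library B-scores, with initial fluorescence B-score within 3 SD, cut at about 5.3 in these data; same plate scores as AID 2156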;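 note: B-score of peak minus minimum over baseline fluorescence ratio after K+ and Tl+ stimulus; positive B-score means potentiation of KCNQ2 with more thallium influx and brighter signal; only the inactives scoring about 0 or higher are listed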
Target sequence (O88943 whole entry, looked up): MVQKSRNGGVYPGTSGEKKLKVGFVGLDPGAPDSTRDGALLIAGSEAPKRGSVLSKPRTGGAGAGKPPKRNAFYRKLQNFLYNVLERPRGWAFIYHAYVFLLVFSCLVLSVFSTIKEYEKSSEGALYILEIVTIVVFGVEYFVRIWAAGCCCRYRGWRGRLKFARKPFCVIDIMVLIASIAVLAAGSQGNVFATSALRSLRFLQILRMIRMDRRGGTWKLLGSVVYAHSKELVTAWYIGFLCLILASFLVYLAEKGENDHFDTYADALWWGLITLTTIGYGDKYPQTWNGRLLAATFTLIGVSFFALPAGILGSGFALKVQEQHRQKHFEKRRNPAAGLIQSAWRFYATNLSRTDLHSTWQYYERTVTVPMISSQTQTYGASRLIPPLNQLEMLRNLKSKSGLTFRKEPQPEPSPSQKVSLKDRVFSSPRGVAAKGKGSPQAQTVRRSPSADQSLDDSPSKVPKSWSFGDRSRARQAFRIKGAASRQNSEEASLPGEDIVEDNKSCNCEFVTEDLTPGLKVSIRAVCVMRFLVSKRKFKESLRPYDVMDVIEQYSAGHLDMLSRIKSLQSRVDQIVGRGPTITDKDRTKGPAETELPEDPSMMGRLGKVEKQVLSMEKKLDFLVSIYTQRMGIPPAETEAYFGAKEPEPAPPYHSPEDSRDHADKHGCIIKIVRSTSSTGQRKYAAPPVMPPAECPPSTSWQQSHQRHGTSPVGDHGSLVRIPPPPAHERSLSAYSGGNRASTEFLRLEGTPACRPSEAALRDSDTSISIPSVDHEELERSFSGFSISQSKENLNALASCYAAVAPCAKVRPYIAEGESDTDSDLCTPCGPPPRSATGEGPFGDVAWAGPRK
KCNQ2 pot baseline: second read-out of KCNQ2 pot, no call of its own (marks repeat the call); B-score; compound at 10 µM; measured here: initial fluorescence intensity artifact check;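 brightness before thallium and not channel activity; 0 = typical well and far values either way flag optical interference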
Starred values were filed as active, the others as inactive.

Sample of the layout:
Results for O=C(COC(=O)c1ccc2c(c1)OCCO2)Nc1cc(S(=O)(=O)N2CCOCC2)ccc1Cl ?
KCNQ2 pot: 0.2; KCNQ2 pot baseline: -2

What do the screens show for `CCOC(=O)c1cc(OC(=O)c2ccccc2Br)n(-c2ccccc2)n1`?
KCNQ2 pot: 1.6; KCNQ2 pot baseline: 0.36

Results for CC[C@H]1CN2CCc3cc(OC)c(OC)cc3[C@@H]2C[C@@H]1C[C@H]1NCCc2cc(OC)c(OC)cc21 ?
KCNQ2 pot: 1; KCNQ2 pot baseline: 0.78

Results for O=C(Nc1ccc(Oc2ccccc2)cc1)C1CC1 ?
KCNQ2 pot: 2.3; KCNQ2 pot baseline: -1.2

What do the screens show for `CC(=O)c1cccc(NC(=O)COc2ccccc2C(=O)c2cc(C#N)c(=O)n(C3CCCCC3)c2)c1`?
KCNQ2 pot: 1.8; KCNQ2 pot baseline: 0.07

What do the screens show for `CCOC(=O)c1nnn(-c2nonc2N)c1CN(C)Cc1ccccc1`?
KCNQ2 pot: 0.37; KCNQ2 pot baseline: -0.35

The list itself, from the first entry:
Results for O=C(COC(=O)c1ccc2c(c1)OCCO2)Nc1cc(S(=O)(=O)N2CCOCC2)ccc1Cl ?
KCNQ2 pot: 0.2; KCNQ2 pot baseline: -2

What do the screens show for `CCOC(=O)c1cc(OC(=O)c2ccccc2Br)n(-c2ccccc2)n1`?
KCNQ2 pot: 1.6; KCNQ2 pot baseline: 0.36

Results for CC[C@H]1CN2CCc3cc(OC)c(OC)cc3[C@@H]2C[C@@H]1C[C@H]1NCCc2cc(OC)c(OC)cc21 ?
KCNQ2 pot: 1; KCNQ2 pot baseline: 0.78

Results for O=C(Nc1ccc(Oc2ccccc2)cc1)C1CC1 ?
KCNQ2 pot: 2.3; KCNQ2 pot baseline: -1.2

What do the screens show for `CC(=O)c1cccc(NC(=O)COc2ccccc2C(=O)c2cc(C#N)c(=O)n(C3CCCCC3)c2)c1`?
KCNQ2 pot: 1.8; KCNQ2 pot baseline: 0.07

What do the screens show for `CCOC(=O)c1nnn(-c2nonc2N)c1CN(C)Cc1ccccc1`?
KCNQ2 pot: 0.37; KCNQ2 pot baseline: -0.35

What do the screens show for `CC(C)CC(=O)Nc1cccc(NC(=O)CC(C)C)n1`?
KCNQ2 pot: 0.16; KCNQ2 pot baseline: -0.82

How did COCCCN1C(=O)C(=O)/C(=C(/O)c2ccc(OC(C)C)cc2)C1c1ccc(O)c(OC)c1 (stereo not drawn) do in these assays?
KCNQ2 pot: 0.43; KCNQ2 pot baseline: 1.9

Results for CCOC(=O)c1c(C)[nH]c(C(=O)OC(C)C(=O)Nc2ccccc2OC)c1C (stereo not drawn) ?
KCNQ2 pot: 0.85; KCNQ2 pot baseline: -0.38

How did O=C1CC(c2ccccc2)n2nc(N3C(=O)c4ccccc4C3=O)nc2N1 (stereo not drawn) do in these assays?
KCNQ2 pot: 2.1; KCNQ2 pot baseline: 0.07

How did CC(C)CNC(=S)NC(=O)c1ccc(F)cc1 do in these assays?
KCNQ2 pot: 1.7; KCNQ2 pot baseline: -1.3

How did CCNC(=S)NNC(=O)c1csc(C)c1 do in these assays?
KCNQ2 pot: 0.28; KCNQ2 pot baseline: 0.35

How did COc1ccccc1N1CCN(CC(O)COc2c(OC)cccc2OC)CC1 (stereo not drawn) do in these assays?
KCNQ2 pot: 1.3; KCNQ2 pot baseline: -1.4

What do the screens show for `COc1ccc(CCN2C(=O)NC(NC(C)=O)(C(F)(F)F)C2=O)cc1OC` (stereo not drawn)?
KCNQ2 pot: 0.01; KCNQ2 pot baseline: -0.28

What do the screens show for `Cc1c(C(=O)NNC(=S)NCc2ccc(Cl)cc2)oc2ccccc12`?
KCNQ2 pot: 0.97; KCNQ2 pot baseline: -3.1

How did CC(=O)c1ccc(S(=O)(=O)NCCCC(=O)NCCc2ccccn2)cc1 do in these assays?
KCNQ2 pot: 0.84; KCNQ2 pot baseline: 0.1

How did COc1ccc(Cl)cc1NS(=O)(=O)c1cccc(C(=O)NCCCN2CCCC2=O)c1 do in these assays?
KCNQ2 pot: 0.44; KCNQ2 pot baseline: -1.4

Results for Cc1ccc(Cn2ncc3c(N4CCN(C5CCCC5)CC4)ncnc32)cc1 ?
KCNQ2 pot: 0.54; KCNQ2 pot baseline: 0.45

How did O=C(CSc1ccc2ccccc2c1)NCCCN1CCCC1=O do in these assays?
KCNQ2 pot: 0.49; KCNQ2 pot baseline: 0.97

Results for O=C(NCCC1=CCCCC1)C1CCN(C(=O)Cc2ccccc2)CC1 ?
KCNQ2 pot: 0.16; KCNQ2 pot baseline: 0

How did COc1ccccc1-c1cc(C(=O)Nc2c(C)n(C)n(-c3ccccc3)c2=O)no1 do in these assays?
KCNQ2 pot: 1.2; KCNQ2 pot baseline: -0.01

How did O=C(NNC1=C(C(=O)C(F)(F)F)CCC1)c1ccccc1O do in these assays?
KCNQ2 pot: 11*; KCNQ2 pot baseline: 0.8*

How did Cc1ccc(C)c(-n2cc[nH]c2=S)c1 do in these assays?
KCNQ2 pot: 0.11; KCNQ2 pot baseline: -0.96

What do the screens show for `CC(C)(C)OC(=O)N1CCN(C(=O)c2cccnc2Cl)CC1`?
KCNQ2 pot: 0.98; KCNQ2 pot baseline: -0.01

Results for O=C(Cc1ccc(Cl)cc1)Nc1ccc(C(=O)N2CCOCC2)cc1 ?
KCNQ2 pot: 0.34; KCNQ2 pot baseline: 0.05

What do the screens show for `COc1ccc(CNc2nc3c(c(=O)[nH]c(=O)n3C)n2Cc2ccccc2)cc1`?
KCNQ2 pot: 0.42; KCNQ2 pot baseline: 0.33

Results for O=C(Oc1ccccc1C(=O)Oc1ccccc1)c1ccco1 ?
KCNQ2 pot: 2.1; KCNQ2 pot baseline: -2.3

How did CC1CN(CCC(=O)Nc2ccc3c(c2)OCO3)CC(C)O1 (stereo not drawn) do in these assays?
KCNQ2 pot: 0.72; KCNQ2 pot baseline: -1

What do the screens show for `CCc1nnc(NC(=O)NCN2C(=O)C3C4C=CC(C4)C3C2=O)s1` (stereo not drawn)?
KCNQ2 pot: 1.8; KCNQ2 pot baseline: 0.02

What do the screens show for `O=C(CCCn1c(=O)[nH]c2cc(Cl)ccc2c1=O)NCCN1CCN(c2ccccc2)CC1`?
KCNQ2 pot: 1.2; KCNQ2 pot baseline: 0.14

What do the screens show for `COc1ccc(S(=O)(=O)N2CCOCC2)cc1NC(=O)COC(=O)C1CC2CCCC(C1)C2=O` (stereo not drawn)?
KCNQ2 pot: 1.6; KCNQ2 pot baseline: 0.04

How did CC(Sc1nnc(NC2CCCCC2)s1)C(=O)N1CCOCC1 (stereo not drawn) do in these assays?
KCNQ2 pot: 0.58; KCNQ2 pot baseline: -3.1

How did O=C(NC1CCCC1)c1noc2c1CCCCC2 do in these assays?
KCNQ2 pot: 0.25; KCNQ2 pot baseline: -0.21

How did CS(=O)(=O)N1CCN(C(=O)c2c(F)cccc2F)CC1 do in these assays?
KCNQ2 pot: 0.02; KCNQ2 pot baseline: 0.44

How did COc1ccc(C2NC(=O)NC(O)(C(F)(F)F)C2C(=O)c2ccc(F)cc2)cc1 (stereo not drawn) do in these assays?
KCNQ2 pot: 1.2; KCNQ2 pot baseline: -0.41

How did C=C(C)CN(Cc1ccccc1)C(=S)Nc1ccccc1 do in these assays?
KCNQ2 pot: 1.8; KCNQ2 pot baseline: 0.02

How did COc1ccc(CC(=O)Nc2c(C(N)=O)oc3ccccc23)cc1OC do in these assays?
KCNQ2 pot: 0.48; KCNQ2 pot baseline: -1

Results for NC(=O)NCC12CC3CC(CC(C3)C1)C2 ?
KCNQ2 pot: 1.3; KCNQ2 pot baseline: 0.02

How did CC(=O)Nc1ccc(S(=O)(=O)N2CCN(c3nc(NC4CCCC4)c4ccccc4n3)CC2)cc1 do in these assays?
KCNQ2 pot: 0.03; KCNQ2 pot baseline: 2.3

How did COc1ccccc1Nc1nc2nonc2nc1N1CCC(C)CC1 do in these assays?
KCNQ2 pot: 2.1; KCNQ2 pot baseline: -1.5

How did CC(C)N(CCCNC(=O)Cn1ncc2c([nH]c3ccccc32)c1=O)Cc1ccccc1 do in these assays?
KCNQ2 pot: 0.58; KCNQ2 pot baseline: -0.08

How did Oc1c(Cl)cc(Cl)cc1Sc1cc(Cl)cc(Cl)c1O do in these assays?
KCNQ2 pot: 45*; KCNQ2 pot baseline: 1.8*

How did COc1ccccc1C(=O)NCC(=O)NNc1ncnc(N)c1[N+](=O)[O-] do in these assays?
KCNQ2 pot: 0.73; KCNQ2 pot baseline: 1

How did COc1ccc(/C=N/NC(=O)c2c(-c3ccccc3)noc2C)cc1 do in these assays?
KCNQ2 pot: 0.96; KCNQ2 pot baseline: 0.55

How did CCN(CC)C(=O)Cn1cc(C(=O)C(=O)N2CCN(Cc3ccccc3)CC2)c2ccccc21 do in these assays?
KCNQ2 pot: 0.29; KCNQ2 pot baseline: 0

What do the screens show for `COC(=O)c1cc(CNC(=O)c2ccccc2OCc2c(C)noc2C)ccc1OC`?
KCNQ2 pot: 0.61; KCNQ2 pot baseline: 1.1

What do the screens show for `CCOC(=O)N1CCN(C(=O)c2ccc(CS(=O)Cc3ccc(C)cc3)o2)CC1` (stereo not drawn)?
KCNQ2 pot: 0.69; KCNQ2 pot baseline: 2.5

What do the screens show for `Cc1ccc2c(c1)N(C(=O)CCC(=O)O)CCO2`?
KCNQ2 pot: 0.63; KCNQ2 pot baseline: -0.27

How did CCCn1c(NCc2ccccn2)nc2ccccc21 do in these assays?
KCNQ2 pot: 1.9; KCNQ2 pot baseline: -0.97

How did O=C(Nc1ccc(Cl)c(Cl)c1)Nc1nnc(CSc2ccccc2)s1 do in these assays?
KCNQ2 pot: 1.4; KCNQ2 pot baseline: 0.12

What do the screens show for `COc1ccc(OC)c(/C=N/NC(=O)c2cc[n+](Cc3ccccc3)cc2)c1`?
KCNQ2 pot: 0.18; KCNQ2 pot baseline: 0.07

What do the screens show for `CSc1ccc(Cl)c(C(=O)Nc2ccc(C)cn2)c1`?
KCNQ2 pot: 0.26; KCNQ2 pot baseline: -0.01

How did CCN(CC)C(=O)CSc1nc2sc3c(c2c(=O)n1CCCOC)CCC3 do in these assays?
KCNQ2 pot: 1.4; KCNQ2 pot baseline: 0.54

How did O=C(Cn1c(C(F)(F)F)nc2ccccc21)c1ccc(F)cc1 do in these assays?
KCNQ2 pot: 0.05; KCNQ2 pot baseline: 0.95

How did CC1=CC(=O)O[C@@H]1[C@@]1(C)C[C@H]2OC(=O)C[C@H]3[C@@H](C)C(=O)C(O)=C1[C@@]23CO do in these assays?
KCNQ2 pot: 0.52; KCNQ2 pot baseline: 0.54

Results for O=C(O)C1CC=CCC1C(=O)NNc1c(Cl)cc(Cl)cc1Cl (stereo not drawn) ?
KCNQ2 pot: 0.01; KCNQ2 pot baseline: 0.2

How did Cc1ccc(S(=O)(=O)NC2(C(F)(F)F)NC(=O)N(Cc3ccccc3)C2=O)cc1 (stereo not drawn) do in these assays?
KCNQ2 pot: 0.01; KCNQ2 pot baseline: -1.3

How did COC(c1ccccc1)c1nnc(CCC(=O)NC2C3CC4CC(C3)CC2C4)o1 (stereo not drawn) do in these assays?
KCNQ2 pot: 0.84; KCNQ2 pot baseline: 0.05

Results for CC12CN3CC(C)(CN(C1)C3c1ccc([N+](=O)[O-])o1)C2=O (stereo not drawn) ?
KCNQ2 pot: 0.04; KCNQ2 pot baseline: 0.07

How did Cc1c(Cl)ccc2sc(NC(=O)c3ccco3)nc12 do in these assays?
KCNQ2 pot: 1.8; KCNQ2 pot baseline: -0.28

Next part, starting with the last 2 of the part before.
Results for CC12CN3CC(C)(CN(C1)C3c1ccc([N+](=O)[O-])o1)C2=O (stereo not drawn) ?
KCNQ2 pot: 0.04; KCNQ2 pot baseline: 0.07

How did Cc1c(Cl)ccc2sc(NC(=O)c3ccco3)nc12 do in these assays?
KCNQ2 pot: 1.8; KCNQ2 pot baseline: -0.28

Results for Cc1cc(-c2ccccc2)nn1-c1nc2c(c(=O)[nH]c(=O)n2C)n1C ?
KCNQ2 pot: 0.69; KCNQ2 pot baseline: 1.5

What do the screens show for `COC(=O)c1[nH]c2ccccc2c1NC(=O)C(C)N1CC(C)OC(C)C1` (stereo not drawn)?
KCNQ2 pot: 0.44; KCNQ2 pot baseline: 0.71

Results for COc1cccc(CN2CC(C(=O)NC3CCCCCC3)CCC2=O)c1 (stereo not drawn) ?
KCNQ2 pot: 0.03; KCNQ2 pot baseline: 2.4

Results for CC1(C)CC(=O)C(N=Nc2ccc(Cl)cc2)=C(O)C1 ?
KCNQ2 pot: 0.47; KCNQ2 pot baseline: 0.31

What do the screens show for `Cc1ccc2oc(=O)c3cc(C(=O)NCCN4CCc5ccccc5C4)sc3c2c1`?
KCNQ2 pot: 0.36; KCNQ2 pot baseline: 1.3

What do the screens show for `COc1ccc(CCNC(=O)c2ccccc2N(C)S(=O)(=O)c2ccccc2)cc1`?
KCNQ2 pot: 0.14; KCNQ2 pot baseline: -0.02

Results for Cc1ccc2c(c1)COc1c3ccc(C(=O)NCC4CC4)cc3nn1-2 ?
KCNQ2 pot: 0.8; KCNQ2 pot baseline: 1

Results for CCNc1ccccc(C(=O)/C=C/c2ccc3c(c2)OCO3)c1=O ?
KCNQ2 pot: 0.79; KCNQ2 pot baseline: 0.82

Results for COc1ccc(CN2CCCC(CO)(Cc3cccc(Cl)c3)C2)cc1OC (stereo not drawn) ?
KCNQ2 pot: 1.1; KCNQ2 pot baseline: 0

What do the screens show for `Cc1cc(Br)c(OCC(=O)NN)c2c1CCC2`?
KCNQ2 pot: 0.46; KCNQ2 pot baseline: -1.9

An excerpt (hit frequency here may not be typical).
